# Sa growth 42C = S. aureus growth inhibition; S. aureus RN4220 growth, OD600, 20 h, 42 °C; hits give low values; AID 720641; 170,000 compounds, 0.53% hits; relative growth, % (test concentration not listed);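 active = growth at 42 °C up to 50% and 20 or more points under that at 30 °C, or under 10% at both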;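 also: 300 nL library stock went into each well; scaled to the means of positive and negative controls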
# HCMV UL50-53 inh = disrupts HCMV UL50-UL53 complex binding | AID 1918969 | HTRF UL50-UL53 interaction, normalized percent inhibition | 190,000 compounds, 0.15% hits | inhibition, % (no concentration beside the values);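 active = both replicates at 50% or more, plus weaker picks with an unusually low signal ratio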;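 also: stock transfer was 100 nL into about 20 µL; 0% = negative control wells and 100% = wells with untagged competitor protein; inactives centre near -12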
# GIV-Gai inh = GIV-Galpha-i interaction inhibition; P08753; Galpha-i3/FITC-GIV peptide fluorescence polarization, 90 min; hits give low values; scaled: aluminum fluoride 0%, vehicle 100%; percent of control (FP), % (concentration not given with the values); 210,000 compounds, 0.42% hits; AID 1224905;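 active = replicate mean at 85% of control or lower, very high polarization wells dropped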;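 also: wells of about 15 µL received 100 nL stock; the first replicate is given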
# Target sequence (P08753 whole entry, looked up): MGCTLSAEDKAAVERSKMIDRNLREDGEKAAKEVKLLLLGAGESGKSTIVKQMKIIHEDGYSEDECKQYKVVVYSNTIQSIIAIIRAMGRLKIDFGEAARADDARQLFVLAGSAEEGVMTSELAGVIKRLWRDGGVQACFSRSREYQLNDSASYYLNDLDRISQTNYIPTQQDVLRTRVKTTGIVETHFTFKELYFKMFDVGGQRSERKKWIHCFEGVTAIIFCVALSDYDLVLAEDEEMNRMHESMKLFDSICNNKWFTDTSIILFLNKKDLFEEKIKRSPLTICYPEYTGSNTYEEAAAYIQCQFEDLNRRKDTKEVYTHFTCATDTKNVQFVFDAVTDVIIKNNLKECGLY
# Sa growth 42C second temp = also measured in Sa growth 42C; calls as there; relative growth, %; measured here: growth at 30 °C;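 optical density after 20 h as mean of two plates; 100% = untreated growth and lower means inhibition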
# Active calls of the source: *; . = no result given.
# Under each structure: Sa growth 42C, Sa growth 42C second temp, HCMV UL50-53 inh, GIV-Gai inh
Cc1ccc(CC(=S)N2CCOCC2)cc1
    102, 88, -7, 103
COc1ccc(-n2c(-c3cccc(F)c3)nc3c(cnn3-c3ccc(C)cc3)c2=O)cc1
    95, 84, -13, 100
COc1ccc(C(=O)C(C)Sc2nnc(-c3ccccc3OC)n2C)cc1 (stereo not given)
    91, 94, -6, .
OC(CNCC1(N2CCCCC2)CCCCC1)COCc1ccccc1F (stereo not given)
    90, 88, -19, .
CCOc1ccc(-c2nonc2NC(=O)C(C)Oc2cc(C)cc(C)c2)cc1C (stereo not given)
    ., ., -21, 108
CN1C(=O)c2[nH]nc(-c3ccccc3)c2C1c1ccccn1 (stereo not given)
    ., ., -10, 101
O=C(CC1C(=O)N(c2ccccc2)C(=O)N1Cc1ccc2c(c1)OCO2)Nc1ccccc1 (stereo not given)
    99, 87, -37, 103
COc1ccc(C)c2sc(=NC(=O)C(C)(C)C)n(C)c12
    93, 76, -31, 96
CN(CC(=O)Nc1ccc(F)c(F)c1F)C(=O)c1cccnc1N1CCCC1
    99, 85, -13, .
COc1ccc(C)c2sc(NN)nc12
    35, 35, -28, 106
COC(=O)c1sccc1NC(=O)C1CCN(c2ccc(=O)n(-c3cccc(F)c3)n2)CC1
    ., ., -30, 101
Nc1nnnn1NCc1ccc(-c2ccc(F)cc2)o1
    111, 100, -11, 102
Clc1ccccc1/C=C/c1nn2c(-c3ccccn3)nnc2s1
    ., ., -38, 107
Cc1ccc(NC(=O)N2CCCCC2C)cc1Cl (stereo not given)
    96, 101, -27, 97
COc1ccc(C(=O)Nc2ccc(Cl)c(-c3nc4ccccc4s3)c2)cc1[N+](=O)[O-]
    ., ., 2, 102
C#CCOc1nc(OCC#C)nc(N(c2ccccc2)c2ccccc2)n1
    127, 88, -18, 101
CCc1nc(SCC(=O)Nc2cccc(C(F)(F)F)c2)c(C#N)cc1C
    ., ., -13, 96
Cn1nc(C(=O)N2CCN(c3ccc(F)cc3)CC2)cc1C(F)(F)F
    ., ., 10, 100
CCOC(=O)Cc1ccc(NC(=O)NCc2c(-n3cccc3)sc3c2CCCC3)cc1
    116, 84, 0, 102
Cc1cccc(C2=NC(C(F)(F)F)(C(F)(F)F)N=C(c3ccco3)O2)c1
    93, 94, -18, 98

# Some of these compounds in order of SMILES length, smallest number first.
# Under each structure: Sa growth 42C, Sa growth 42C second temp, HCMV UL50-53 inh, GIV-Gai inh
COc1ccc(C)c2sc(NN)nc12
    35, 35, -28, 106
Cc1ccc(CC(=S)N2CCOCC2)cc1
    102, 88, -7, 103
Cc1ccc(NC(=O)N2CCCCC2C)cc1Cl (stereo not given)
    96, 101, -27, 97
Nc1nnnn1NCc1ccc(-c2ccc(F)cc2)o1
    111, 100, -11, 102
OC(CNCC1(N2CCCCC2)CCCCC1)COCc1ccccc1F (stereo not given)
    90, 88, -19, .
COc1ccc(C)c2sc(=NC(=O)C(C)(C)C)n(C)c12
    93, 76, -31, 96
CN1C(=O)c2[nH]nc(-c3ccccc3)c2C1c1ccccn1 (stereo not given)
    ., ., -10, 101
C#CCOc1nc(OCC#C)nc(N(c2ccccc2)c2ccccc2)n1
    127, 88, -18, 101
COc1ccc(C(=O)C(C)Sc2nnc(-c3ccccc3OC)n2C)cc1 (stereo not given)
    91, 94, -6, .
Cn1nc(C(=O)N2CCN(c3ccc(F)cc3)CC2)cc1C(F)(F)F
    ., ., 10, 100
CN(CC(=O)Nc1ccc(F)c(F)c1F)C(=O)c1cccnc1N1CCCC1
    99, 85, -13, .
CCOc1ccc(-c2nonc2NC(=O)C(C)Oc2cc(C)cc(C)c2)cc1C (stereo not given)
    ., ., -21, 108
Cc1cccc(C2=NC(C(F)(F)F)(C(F)(F)F)N=C(c3ccco3)O2)c1
    93, 94, -18, 98
COC(=O)c1sccc1NC(=O)C1CCN(c2ccc(=O)n(-c3cccc(F)c3)n2)CC1
    ., ., -30, 101
COc1ccc(C(=O)Nc2ccc(Cl)c(-c3nc4ccccc4s3)c2)cc1[N+](=O)[O-]
    ., ., 2, 102

# Next entries:
# Under each structure: Sa growth 42C, Sa growth 42C second temp, HCMV UL50-53 inh, GIV-Gai inh
CN=C1S/C(=C\c2ccc(Oc3ccc([N+](=O)[O-])cc3C#N)c(OC)c2)C(=O)N1C
    ., ., -13, 108
Cc1cc(C)cc(-n2c(C)nc3cc(C(=O)NCc4ccccc4Cl)ccc32)c1
    127, 87, ., 106
CCOC(=O)c1c(-c2ccc(F)cc2)csc1NC(=O)c1cc2ccccc2c(=O)s1
    ., ., -24, 103
CCn1c(=O)cc(SCC(=O)Nc2ccc(F)cc2)c2ccccc21
    93, 81, -14, 96
COc1ccc(-c2[nH]c3c(=O)n(C)c(=O)n(C)c3c2O)cc1OC
    110, 93, -16, 102
CCC(C)NC(=O)c1cc2c(=O)n(CC)c3ccccc3c2s1 (stereo not given)
    88, 82, ., 102
NC(=O)C1CCN(C2=NC(=O)/C(=C/c3cn(-c4ccccc4)nc3-c3cccs3)S2)CC1
    114, 103, -17, 101
COc1ccc(C2=NN(C(=O)CCC(=O)O)C(c3ccccc3OC)C2)cc1OC (stereo not given)
    ., ., -58, 105
CN(C(=O)COC(=O)c1ccc(Cl)c(S(N)(=O)=O)c1)C1CCS(=O)(=O)C1 (stereo not given)
    90, 98, -10, .
C=CCNC(=S)N1N=C2c3ccccc3CCC2C1c1ccccc1Cl (stereo not given)
    93, 79, -45, 106
CCOC(=O)c1cnn(-c2ccc(C(=O)Nc3cccc(C(C)=O)c3)cc2)c1N
    124, 90, ., 101
NC(=O)c1cc2c(n(-c3ccccc3)c1=O)CCCC2=O
    108, 90, ., 99
O=C(NC(=O)c1ccccc1C(F)(F)F)NN1CCCCC1
    108, 89, -25, 104
O=c1c2cnn(-c3ccccc3)c2nc(-c2ccccc2F)n1-c1ccc(Cl)cc1
    ., ., -12, 97
Cn1c2ccccc2c2nnc(SCC(=O)NC3=NN=C(c4ccccc4)CS3)nc21
    94, 80, -28, 100
O=C(O)CSCc1nc2ccccc2c(=O)[nH]1
    98, 83, -22, 98
CC(C)(O)C#Cc1ccc(C(=O)NCC(c2ccccc2)c2ccccc2)cc1
    110, 87, -8, .
CO[C@@H]1O[C@H](COC(=O)c2ccccc2)[C@H](OC(=O)c2ccccc2)[C@H]1OC(=O)c1ccccc1
    83, 75, -31, 103
Cc1ccc(Sc2nn(C)c(=O)n(C)c2=O)cc1C
    76, 84, -60, .
CCc1ccc(NC(=O)c2scc(-c3ccccc3)c2-n2cccc2)cc1
    ., ., -21, 99
COC(=O)CSc1nc2ccccc2n1CC(=O)N1C(C)CCCC1C (stereo not given)
    90, 86, -10, 98
CCOc1ccc(-c2cnc(NCc3ccc(C(F)(F)F)cc3)n2C)cc1
    90, 38, -6, 109
O=c1c2cc3ccccc3n2cnn1Cc1ccccc1F
    132, 97, 1, 108
CC(=O)CCCCn1cnc2c1c(=O)n(C)c(=O)n2C
    107, 107, -3, .
COc1cccc(-c2nc3sc4c(c3c(=O)n2CC(=O)Nc2ccccc2Cl)CCCC4)c1
    ., ., -19, 98
O=C(CCn1c(=O)c2cccn2c2ccc(F)cc21)NCCc1cccs1
    92, 64, -18, 100
COC(=O)c1ccccc1NC(=O)CCn1cccc1
    122, 94, ., 103
COc1ccc(NC(=O)NC(=O)C(F)(F)F)cc1
    115, 94, -6, 103
CCc1ccccc1NC(=O)Cn1nnc(C(=O)NCc2cccs2)c1N
    110, 91, -17, 105
O=c1c2cccnc2ncn1CCCN1CCOCC1
    107, 101, 16, 111
O=C(NC(NCc1ccccn1)(C(F)(F)F)C(F)(F)F)c1cccnc1
    96, 83, -31, 104
Cc1ccc2[nH]cc(CCNC(=O)CC3CCN(C(=O)c4[nH]c(C)cc4C)CC3)c2c1
    ., ., 2, 109
O=C(COc1coc(CN2CCc3ccccc32)cc1=O)OCc1ccccc1
    93, 38, -27, 102
Nc1cc(=O)[nH]c(SC(C(=O)N2CCCC2)c2ccccc2)n1 (stereo not given)
    73, 88, -29, .
CCc1ccc(NC(=O)c2cc3c(=O)n(Cc4cccs4)ccc3nc2C)cc1
    127, 96, ., 101
CC1(C)C(=S)Nc2ccccc21
    95, 85, -19, 105
Cc1ccc(-c2nnc(Nc3cccc(Br)c3)c3ccccc23)cc1S(=O)(=O)NCCO
    ., ., 12, 108
CCOC(=O)c1c(C)noc1N
    89, 91, -16, 104
O=C(NC1CCCc2ccccc21)c1ccc(CN2C(=O)CCn3nc(-c4ccc(Cl)cc4)cc32)cc1 (stereo not given)
    ., ., -12, 100
COc1ccc(OC)c(NC(=O)c2ccc(S(=O)(=O)c3ccc(Br)cc3)nc2)c1
    ., ., -29, 104
COC(=O)c1c(NC(=O)/C(C#N)=C/c2ccccc2)sc2c1CCC2
    102, 86, -36, 108
CCN1C(=O)c2ccccc2S(=O)c2ccc(C(=O)N3CCCCC3)cc21 (stereo not given)
    102, 96, ., 101
CN(C)c1ccc(/C=C2\CCCC3C2=NN(C(=S)NC(=O)c2ccco2)C3c2ccc(N(C)C)cc2)cc1 (stereo not given)
    115, 104, 6, .
CCOc1ccc(Nc2cccc(F)c2C#N)cc1
    81, 95, -23, .
O=C(CSc1ccc2c(c1)OCCO2)NC1CCS(=O)(=O)C1 (stereo not given)
    102, 87, -17, .
COC(=O)c1ccccc1NC(=O)c1ccc(-n2nc(OCc3cccc(F)c3)ccc2=O)cc1
    ., ., 17, 98
CC(C)(C)NC(=S)NNc1c(Cl)cncc1Cl
    84, 74, -33, 104
O=C(Nc1ccc2c(c1)OCCO2)c1ccc(-n2nc(OCc3cccc(F)c3)ccc2=O)cc1
    ., ., 6, 99
CCOC(=O)c1sc(NC(=O)Cc2coc3ccc(C(C)C)cc23)c(C(=O)OCC)c1C
    ., ., -6, 100
Oc1ccc(Br)cc1C=NCc1cccnc1
    110, 96, -4, 113
COc1ccc(C)cc1-n1nnnc1SCC(=O)Nc1ccccc1C(=O)NC1CC1
    114, 88, 4, .
CCOc1ccc(CNC(=O)C2CCN(C(=O)c3ccc(-n4ccc5ccccc54)s3)CC2)cc1
    114, 104, ., 112
CN(C)S(=O)(=O)c1ccc(C(=O)NCC(=O)NN)cc1
    94, 96, -1, 106
CC(=O)N1CCc2c(sc3c2c(=O)n(-c2cc(Cl)ccc2C)c(=O)n3C)C1
    70, 97, 14, 110
COc1cccc(Cn2ccn(-c3ccc(F)cc3)c(=O)c2=O)c1
    112, 88, -42, 92
O=C(O)CC1(CC(=O)Nc2cscc2S(=O)(=O)c2ccccc2)CCCCC1
    119, 86, 0, 101
Cc1cccc(NC(=O)CNS(=O)(=O)c2ccc(Br)s2)c1
    96, 75, ., 103
CC(NCC(O)Cn1c2ccccc2c2ccccc21)C(=O)O (stereo not given)
    102, 92, -3, 101
Cc1nn(C(C)C(=O)NCc2ccc(OC(C)C)cc2)c(=O)c2c1sc1ccccc12 (stereo not given)
    85, 81, 8, 106
Cc1ccc(C2=NN(CC(=O)N3CCCCC3)C(=O)CC2)cc1
    97, 103, 14, 107

# (more compounds)
# Under each structure: Sa growth 42C, Sa growth 42C second temp, HCMV UL50-53 inh, GIV-Gai inh
COc1ccc(CN(Cc2ccco2)S(=O)(=O)c2ccc(S(=O)(=O)N3CCCC3)cc2)cc1
    109, 94, -14, 108
CC(C)c1nnc(NC(=O)c2ccccc2)s1
    142, 103, -16, 101
CS(=O)(=O)NCCSc1cc(C(F)(F)F)nc2ccccc12
    94, 90, 0, 96
O=C(CSc1ncnc2c1oc1ccccc12)OCc1ccccc1
    107, 85, ., 101
COc1cccc(C2C(C(=O)Nc3ccc(Cl)cc3)=C(C)Nc3c(C(=O)Nc4ccccc4)cnn32)c1OC (stereo not given)
    92, 81, 3, 100
Clc1ccccc1-c1cc(-c2nnco2)c2ccccc2n1
    87, 85, -38, .
CCCN1CCN(c2cc(-c3ccccc3)nc3cc(-c4cccc(F)c4)nn23)CC1
    135, 99, 2, 105
CCN1CCSc2ccc(C(=O)NCCCN3CCCCC3)cc21
    100, 90, ., 96
N#C/C=C/N1CCN(C/C=C/c2ccccc2)CC1
    112, 92, 4, .
CC12CC3(C)CC(N)(C1)CC(C(=O)O)(C2)C3
    99, 101, 8, 102
Cc1cc2c(cc1S(=O)(=O)CCC(=O)NCc1ccccc1)OCC(=O)N2
    112, 92, ., 105
Oc1ccc(Cl)cc1C1=Nc2ncnn2C(c2ccccc2)C1 (stereo not given)
    96, 46, -26, 114
COc1cccc(NC(=O)CCCn2c(=O)c3cccn3c3ccc(F)cc32)c1
    ., ., -8, 105
CCn1c(O)c(N=NC(N)=S)c2ccccc21
    64, 71, -54, .
COc1ccc2c(c1)-c1c(ssc1=S)C(C)(C)N2C(=O)c1sc2ccccc2c1Cl
    ., ., -12, 103
CCCc1[nH]n(-c2ccc([N+](=O)[O-])cc2)c(=O)c1C=NCc1ccc(OC)cc1
    ., ., -25, 105
Cc1ccc(-n2cc3ccccc3c2C#N)nc1
    96, 97, -5, 109
O=c1[nH]snc1N1CCOCC1
    101, 73, -28, 107
CCN1CCN(C(=O)c2ccc3c(c2)N(Cc2ccc(F)cc2)C(=O)c2ccccc2S3(=O)=O)CC1
    109, 100, 7, 104

# High-throughput results as filed in PubChem.
